From PubChem BioAssay
gsp ag = agonists of gsp mutant (McCune-Albright syndrome). gsp mutant cells, cAMP HTRF, 30 min; control for the full effect not named in the record. Potency, µM (top dose mostly 76.9 µM), for inactives: top-dose activation (cAMP increase), usual class: activators. hit rate 0.13% among 340,000. AID 624287; active = well fitted activation curve with a large enough effect; inconclusive = small, poorly fitted or top-dose-only effect, or another doubt; inactive = no such curve, though single readings can be large or run the other way; cell line not stated here;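 also: phosphodiesterase inhibitor Ro 20-1724 added with compounds to block cAMP breakdown; potency is read from the fitted curve at half-maximal effect; nearly all actives have a fitted effect of over 60% in size; about a fifth of the inactives were tested at one dose only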
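Cells in DMEM/10% FBS with G418 were pretreated with compounds in DMSO plus […] (300 uM stock) for 30 min at 37C. cAMP was measured by HTRF (cAMP-d2 plus anti-cAMP antibody-K) after 30 min at room temperature.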
gsp antag = antagonists of gsp mutant (McCune-Albright syndrome). hit rate 0.4% among 340,000. gsp-mutant cells, cAMP HTRF, 30 min; control for the full effect not named in the record. Potency, µM (titrated, usually from 76.9 µM), for inactives: at the top dose activity change, negative = inhibition, most hits filed as inhibitors. AID 624288; active = falling curve of any shape with a large fitted effect; inconclusive = falling curve, mostly with a smaller effect; inactive = flat or rising curve; cell line not stated here;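 also: intracellular cAMP measured with PDE inhibitor Ro 20-1724 present during compound exposure; potency is read from the fitted curve at half-maximal effect; % is scaled to controls: 0 for no effect and ±100 for the full control effect; nearly all actives have a fitted effect of over 65% in size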
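HTRF cAMP read-out (cAMP-d2 plus anti-cAMP antibody-K in lysis buffer, 30 min RT). Before lysis, cells are exposed to compounds with […] for 30 min at 37C in DPBS containing Ca/Mg, BSA and Tween 20.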
Menin-MLL FL inh = inhibitors of human menin-MLL interaction, wild-type MLL peptide; Fluorescence polarization, fluorescein-MLL peptide displacement from menin; FP activity change, % at 61.4 µM; 290,000 tested, under 10 active; AID 1766; inconclusive = falling polarisation curve, or a change in total fluorescence; inactive = total fluorescence flat and polarisation flat or rising; no compound was filed as active; the % refers to the polarisation; negative = inhibition;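 also: % of control where 0% means no effect; inhibitors lower the polarisation; unlabelled MLL peptide was the positive control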
TRPML1 agonist = activates the human TRPML1 channel; Q9GZU1; TRPML1-expressing cells, Ca2+ dye fluorescence, FDSS; host cell line not named in the record; reference of the full effect not given here; activation, % (no concentration beside the values); hit rate 0.12% among 410,000; AID 624414; in the data active = activation above about 50%; inconclusive = about 30% to 50%; inactive = below about 30%; also: 0% is about no effect; the text of the record puts the active cut at 80%
Target sequence (Q9GZU1 whole entry, looked up): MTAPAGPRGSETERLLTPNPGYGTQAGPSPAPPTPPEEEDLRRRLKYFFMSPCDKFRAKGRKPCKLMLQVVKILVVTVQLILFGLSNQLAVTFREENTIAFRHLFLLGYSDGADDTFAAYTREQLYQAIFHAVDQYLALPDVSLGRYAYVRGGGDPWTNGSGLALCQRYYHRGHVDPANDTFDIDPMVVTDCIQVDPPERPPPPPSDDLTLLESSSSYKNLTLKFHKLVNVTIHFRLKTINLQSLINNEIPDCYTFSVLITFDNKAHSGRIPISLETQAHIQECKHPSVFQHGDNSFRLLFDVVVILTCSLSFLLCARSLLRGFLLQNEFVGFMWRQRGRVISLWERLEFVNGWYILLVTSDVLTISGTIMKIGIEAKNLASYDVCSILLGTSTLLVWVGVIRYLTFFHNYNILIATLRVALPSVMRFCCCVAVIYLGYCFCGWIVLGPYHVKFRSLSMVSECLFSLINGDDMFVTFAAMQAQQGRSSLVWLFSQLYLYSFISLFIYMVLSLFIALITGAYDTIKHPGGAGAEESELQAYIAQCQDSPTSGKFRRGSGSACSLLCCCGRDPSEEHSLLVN
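Agonist activity was taken from a 110 s kinetic Ca2+ dye read on the FDSS after pinning compounds onto TRPML1-DL cells. The cells were seeded at 1,500/well with Tet inducer, incubated about 16 h, then dye-loaded at room temperature.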
TRPML1 blocker = human mucolipin-1 channel inhibition; Q9GZU1; activity change, negative = inhibition, % (test concentration not listed); hit rate 0.02% among 390,000; TRPML1-inducible cells, Ca2+ dye fluorescence, FDSS; stronger effect = lower value; inhibition of EC80 agonist-evoked calcium signal; in the data active means activity change below about -50%; inconclusive means about -30% to -50%; inactive means above about -30%;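 also: stimulus is agonist 54-4 at its EC80 concentration; % is scaled to controls: 0 for no effect and ±100 for the full control effect; compound concentration not given in the record; the text of the record puts the active cut at -80%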
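Tet-induced TRPML1-DL cells loaded with Ca8 no-wash calcium dye were read kinetically on FDSS. Compound addition was followed by EC80 agonist 54-4 (4 uM final); inhibition was read over 110 s.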
ClpP mod = qHTS Assay for Activators of ClpP; hit rate 1.9% among 340,000; purified B. subtilis ClpP, FRET peptide cleavage, 20 min; AID 651965, 2013; Potency, µM (highest dose often 57.5 µM), for the others: at the highest dose activity change, negative = active; ATP-dependent Clp protease proteolytic subunit (Bacillus subtilis (strain 168)), P80244; active = well fitted falling curve with a large enough effect; inconclusive = small, poorly fitted or top-dose-only effect; inactive = no such curve, though single readings can be large or run the other way; also: potency is read from the fitted curve at half-maximal effect; the source files actives as falling curves though it sought activators and does not explain the sign; nearly all actives have a fitted effect of over 65% in size; many hits overshoot -100%
Target sequence (P80244 whole entry, looked up): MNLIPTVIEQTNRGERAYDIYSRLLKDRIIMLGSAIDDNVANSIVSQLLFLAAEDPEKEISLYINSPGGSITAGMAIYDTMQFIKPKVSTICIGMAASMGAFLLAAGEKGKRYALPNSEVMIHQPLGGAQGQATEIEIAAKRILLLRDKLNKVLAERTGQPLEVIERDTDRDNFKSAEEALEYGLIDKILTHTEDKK
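ClpP 10 microg/mL final, pH 8 Tris/KCl buffer with BSA, glycerol, Tween-20; compound pinned in; FRET-FV substrate; RT 20 min; Ex320/Em430; ΔFRET vs ADEP 5.8 microM, DMSO, no enzyme.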
Numbers without * were called inactive; ? = inconclusive; . = not tested or not shown; [ ] = remark or other dose.

SMILES | gsp ag | gsp antag | Menin-MLL FL inh | TRPML1 agonist | TRPML1 blocker | ClpP mod
COc1ccc(Cl)cc1NC(=O)CCS(=O)(=O)c1nc(-c2cccs2)cc(C(F)(F)F)n1 | . | . | . | 0.9 | 3 | 0.0%
COc1cc(/C=N/NC(=O)c2ccc(N(C)S(=O)(=O)c3ccccc3)cc2)cc(OC)c1OC | -7% | -9% | 1.1 | 0.6 | 9 | -8.6%
Clc1cccc(N2CCN(c3c4c(nc5nncn35)CCC4)CC2)c1 | . | . | . | 2.8 | 61 | -1.2%
CCCCCCOc1ccc(NC(=O)CC2C(=O)N(CC)C(=S)N2Cc2ccco2)cc1 (stereo not drawn) | -27% | ? | . | 0.8 | -15 | 1.9%
O=C(NCc1cccnc1)c1nnc(Cc2ccc(F)cc2)o1 | -13% | 11% | 0.5 | -0.8 | -7 | 1.6%
COCCNC(=O)CSc1ccc(-c2nc3ccccc3[nH]2)cn1 | -9% | -4% | -0.1 | 0.0 | -2 | 3.6%
O=C(/C=C/c1cccc([N+](=O)[O-])c1)OCC(=O)N1CCN(C(=O)c2ccco2)CC1 | 1% | 3% | . | -0.2 | 10 | 1.4%
Cc1onc(-c2ccccc2Cl)c1C(=O)Nc1nnc(C(C)C)s1 | ? | -13% | -2.3 | 0.6 | -10 | 0.5%
CCN(CC(=O)Nc1ccc2c(c1)OCCO2)c1nc(-c2cccnc2)nc2ccccc12 | 13% | 7% | 6.0 | -0.5 | -2 | -1.6%
CCN(CC)C(=O)c1sc(NC(=O)c2c(OC)cccc2OC)c(C#N)c1C | -1%[15.4 µM] | 1% | 4.0 | -0.5 | -7 | .
Cc1cc(F)ccc1Nc1nc2ccccc2n2nnnc12 | . | . | . | 0.3 | -16 | 4.3%
CCOC(=O)c1c(C)[nH]c(C)c1S(=O)(=O)N(C)CC(=O)Nc1cccc(C(F)(F)F)c1 | . | . | . | -1.2 | ? | -2.4%
CCOc1ccc(-c2c(C(=O)N/N=C/c3ccc(Cl)cc3)nnn2-c2nonc2N)cc1 | -1% | 11% | . | 3.2 | 7 | -17%
CCn1ncc(CN2CCN(Cc3cccc(OC)c3)C(CCO)C2)c1C (stereo not drawn) | 15% | 6% | -1.6 | 0.1 | -27 | .
N#C/C(=C\c1cccc([N+](=O)[O-])c1)c1nnc2n1CCCCC2 | -7% | 6% | -1.6 | -0.6 | 17 | 1.1%
NC(=O)c1sc2nc(-c3ccco3)ccc2c1N | ? | 7% | 4.9 | 0.0 | -3 | 2.8%
CCCCC1(C)OC(=O)C(=Cc2c[nH]c3ccccc23)C(=O)O1 (stereo not drawn) | -1%[15.4 µM] | -23% | 9.9 | -0.1 | -6 | .
O=C(CSc1nc(=O)n2ccccc2n1)NCc1ccccc1 | 16%[15.4 µM] | 5% | . | 0.6 | 0 | .
Cc1ccc(-n2nc3c(c2NC(=O)c2ccc4c(c2)OCO4)CS(=O)C3)c(C)c1 (stereo not drawn) | 16% | 3% | . | 0.1 | 2 | -3.1%
O=C(Cn1ncc2c3ccccc3n(Cc3ccccc3)c2c1=O)NCc1cccs1 | . | . | . | 5.2 | 18 | -22%
CCOCCSc1nnc2nc(C)cc(C)n12 | -10% | 8% | 0.4 | 1.6 | ? | -14%
COc1ccc(S(=O)(=O)NCCSC(C)(C)C)cc1 | -17% | -35% | 0.1 | 0.6 | 12 | -0.5%
O=C(CCS(=O)(=O)c1ccccc1)Nc1nc2c(s1)CCCC2 | -16% | 2% | 2.8 | 0.2 | 10 | -1.8%
O=C(CSC1=NS(=O)(=O)c2cc(Cl)ccc2N1)Nc1ccccc1C(F)(F)F | 6%[15.4 µM] | -9% | . | 0.5 | -19 | .
COc1ccccc1N(C)S(=O)(=O)c1ccc(C(=O)OC(C)C(=O)NCc2ccc3c(c2)OCO3)cc1 (stereo not drawn) | -10% | -27% | 0.3 | 0.9 | -2 | 0.4%

The list continues.
SMILES | gsp ag | gsp antag | Menin-MLL FL inh | TRPML1 agonist | TRPML1 blocker | ClpP mod
CCOC(=O)C1CCCN(C(=O)Cc2ccc(Cl)cc2)C1 (stereo not drawn) | -20% | 4%[15.4 µM] | 1.6 | 1.0 | 64 | -3.0%
C=CCOC(=O)C1=C[C@@H](c2cn(C(C)=O)c3ccccc23)C[C@@H](OCc2ccc(CO)cc2)O1 | . | -20% | . | 0.2 | 8 | -2.8%
Cc1cccc(NC(=O)C2CCCN(c3nc(C)cc(C)n3)C2)c1 (stereo not drawn) | -25% | 33%[activator] | 5.4 | 1.4 | -8 | -19%
CSc1ncccc1C(=O)Nc1cccc(S(=O)(=O)N2CCCCC2)c1 | 14% | -19% | . | 0.2 | 24 | 2.2%
Nc1ncc(-c2ccccc2)c(-c2ccc(OCc3ccccc3)cc2O)n1 | 2%[15.4 µM] | -10% | 0.5 | 1.9 | 9 | .
CCN(CC)S(=O)(=O)c1ccc2[nH]c(=O)cc(C(=O)Nc3cccc(C(C)=O)c3)c2c1 | -30%[inhibitor] | -1% | 2.4 | 1.4 | -5 | 34%
CC1CCN(C2=NC(=O)/C(=C/c3cn(-c4ccccc4)nc3-c3cccc(S(=O)(=O)N(C)C)c3)S2)CC1 | -14% | -12% | 4.9 | 1.1 | 8 | -29%
OC[C@@H]1[C@@H](c2ccccc2)C(c2cccc(Cl)c2)=NN1c1ccccc1 | . | 7% | 6.4[94.6 µM] | -1.1 | -15 | 4.2%
COc1cccc(NC(=O)c2ccccc2NS(C)(=O)=O)c1 | 8% | -12% | 2.5 | -0.7 | 6 | -15%
CCOc1cccc2sc(N(CCCN(C)C)C(=O)c3ccc(S(=O)(=O)N4CCCCCC4)cc3)nc12 | -19% | -8% | 0.0 | 0.8 | 16 | -0.7%
CCOc1ccc(/C=N/NC(=O)c2nnn(-c3nonc3N)c2CN(C)C2CCCCC2)cc1 | 8% | -14% | 1.6 | -0.1 | 37 | -6.1%
CC(=O)Nc1ccc(/C=N/NC(=S)NC(C)C)cc1 | 1%[15.4 µM] | 1% | 0.1 | 0.1 | 19 | .
CCn1c(C(=O)N2CCC(C(=O)N3CCN(c4ccc(OC)cc4)CC3)CC2)cc2sccc21 | . | . | . | 0.3 | -9 | -2.1%
COc1ccc([C@H]2CC(=O)C=C(c3ccc4c5c(cccc35)CC4)C2)cc1 | 4% | -8% | . | 0.3 | -4 | -17%
Cc1ccc(C)c(NS(=O)(=O)c2ccc(OCC(=O)N3CCCC3)cc2)c1 | -28% | -7% | 5.4 | -0.5 | 4 | -1.2%
COc1ccccc1CNC(=O)C(=O)NCC(c1ccco1)S(=O)(=O)c1cccs1 (stereo not drawn) | . | . | . | 0.2 | -9 | 0.2%
COc1ccc(C2/C=C\CN(C(=O)C3CCCCC3)C(Cc3ccccc3)C(=O)N2Cc2ccc(F)cc2)cc1 (stereo not drawn) | . | . | 3.3 | 1.9 | 38 | .
Cn1c(=O)c2c(nc3n2CC(COc2ccccc2)O3)n(C)c1=O (stereo not drawn) | ? | 0% | -2.1 | -0.2 | 45 | 0.3%
Cc1[nH]c2ccccc2c1C(=O)CSc1n[nH]c(N)n1 | -14%[15.4 µM] | 6% | 1.0 | 0.4 | 8 | -15%
COCCC(=O)NNS(=O)(=O)c1ccc(Cl)cc1 | -5%[15.4 µM] | 15% | 1.0 | 0.4 | 49 | -0.9%
CC1(C)CC2CC(C)(CN2C(=O)COC(=O)c2cccc([N+](=O)[O-])c2)C1 (stereo not drawn) | 34% | 3% | . | 2.1 | -13 | 1.1%
COCCOc1cc(NC(=O)c2cccc(OC)c2)c(Cl)cc1Cl | 9%[15.4 µM] | . | -5.8 | 1.0 | 0 | .
Cc1ccc2c(c1)CCCN2C(=O)c1cccs1 | 21% | -5% | 5.1 | -0.2 | -5 | -1.1%
CC(=C/c1ccco1)/C=N/NC(=O)c1nnn(-c2nonc2N)c1CN(C)C | ? | -7% | 1.1 | 0.6 | -1 | .
Cn1nc(C(C)(C)C)c([N+](=O)[O-])c1C(=O)NCCO | 5%[15.4 µM] | 21% | 5.4 | -0.4 | 7 | 1.4%

Going on with the list.
SMILES | gsp ag | gsp antag | Menin-MLL FL inh | TRPML1 agonist | TRPML1 blocker | ClpP mod
CC(=O)c1ccc(NC(=O)c2ccc3c(c2)nnn3C2CCCC2)cc1 | . | . | . | 0.6 | -9 | -2.1%
Nc1nnc(SCc2cc3c(cc2Cl)OCO3)s1 | -14% | 5% | 3.2 | 0.1 | -5 | -0.5%
CCOC(=O)Cc1nnc(NC(=O)c2ccccc2OCC)s1 | ? | -12% | 3.2 | 0.3 | -4 | -6.1%
O=C(NNc1ccccn1)C(c1ccccc1)c1ccccc1 | 19%[15.4 µM] | 7% | 1.4 | -1.0 | 2 | .
Cc1cccn2c(CN(C)CC3CCCCO3)c(C(=O)N3CCCCC3)nc12 (stereo not drawn) | 22% | 11% | -0.4 | -0.9 | -5 | .
O=C(O)c1cnc(-c2ccccc2)nc1Sc1cccc(Cl)c1 | -25% | -17% | -1.7 | 3.1 | 11 | -2.8%
CSc1cc(-c2ccccc2)[nH]c(=O)c1C#N | ? | 3% | -0.8 | 0.2 | 28 | 3.8%
COc1ccc(C(NC(=O)c2cc(OC)ccc2OC)c2ccccc2)cc1 (stereo not drawn) | -2% | -13% | -11 | 3.3 | 24 | .
COCCn1c(-c2ccc(SC)cc2)nc2c1c(=O)[nH]c(=O)n2CC(C)C | -30%[inhibitor] | -21% | 0.9 | 5.8 | 28 | .
O=C(CSCc1cccc(Br)c1)NC1CC1 | 0% | 22% | . | 0.7 | 5 | 0.9%
Cc1ccc(C(=O)NNC(=O)C2CCN(Cc3ccccc3)CC2)cc1 | -11% | 3% | -1.9 | -0.7 | -3 | -0.8%
Cc1ncc(CN2CCN(Cc3ccc(F)cc3)C(CCO)C2)s1 (stereo not drawn) | -1%[15.4 µM] | 9% | 5.7 | 0.9 | -5 | .
Cc1cc(Br)cn2cc(C(=O)O)nc12 | 48%[15.4 µM] | -11% | -3.1 | 0.3 | -6 | .
O=C(Nc1cccc([N+](=O)[O-])c1)NN1CCCCCC1 | -1% | -11% | . | -0.5 | 1 | .
CCOc1ncccc1C(=O)OCc1csc(CC(=O)Nc2ccccc2C)n1 | -12% | 8% | . | 0.8 | -10 | 0.4%
CNC(=O)c1c(I)c(C(=O)NCC(=O)Nc2c(I)c(C(=O)O)c(I)c(C(=O)NCCO)c2I)c(I)c(N(C)C(C)=O)c1I | . | 6% | 1.5[24.8 µM] | -0.8 | -2 | 0.7%
CCOC(=O)c1cccc(NC(=O)C2CCN(c3nnc(C)c4c(C)n(-c5ccccc5)nc34)CC2)c1 | . | . | . | 0.0 | -6 | -7.6%

Not a hit list. About 2.1% of those tested had a hit in this group.
